CtBP-E1A inh: CtBP/E1A binding inhibition. AlphaScreen GST-E1A/His-CtBP binding, 1536-well; stronger effect = lower value; control for the full effect not named in the record. activity change, % (test concentration not listed). actives 0.49% (n = 340,000). AID 651724; in the data active means activity change below about -65%; inconclusive means about -30% to -65%; inactive means above about -30%; note: % is set by controls: 0 for no effect and ±100 for the full control effect; compound concentration not given in the record
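Homogeneous bead-based format: GST-tagged E1A captured on glutathione donor beads, His-tagged CtBP on nickel acceptor beads; compounds precede bead addition by 2 h at 37 °C.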
TRPV1 PAM: potentiators of human vanilloid receptor 1 (TRPV1) | potentiation, % at 8.33 µM | TRPV1-expressing cells, Fluo-8 calcium influx, capsaicin EC20 potentiation; host cell line not named in the record; control for the full effect not named in the record | actives 0.02% (n = 320,000) | Q8NER1; active means potentiation above 80%; inconclusive means 30% to 80%; inactive means below 30%; note: 0% is about no effect
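Cells expressing TRPV1 were dye-loaded with Fluo-8 and read kinetically: 10 s baseline, 3 min after compound (agonist portion), then 2 min after EC20 capsaicin (allosteric enhancer portion). Calcium-bound dye fluorescence at 480/520 nm.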
Six1-Eya2 inh: Six1/Eya2 interaction inhibition; Q15475+O00167; activity change, % (concentration not given with the values); AID 651725; actives 0.56% (n = 360,000); AlphaScreen GST-Six1/His-Eya2 binding, biochemical; stronger effect = lower value; control for the full effect not named in the record; in the data active = activity change below about -65%; inconclusive = about -30% to -65%; inactive = above about -30%; note: % is set by controls: 0 for no effect and ±100 for the full control effect
Target sequence (O00167 whole entry, looked up): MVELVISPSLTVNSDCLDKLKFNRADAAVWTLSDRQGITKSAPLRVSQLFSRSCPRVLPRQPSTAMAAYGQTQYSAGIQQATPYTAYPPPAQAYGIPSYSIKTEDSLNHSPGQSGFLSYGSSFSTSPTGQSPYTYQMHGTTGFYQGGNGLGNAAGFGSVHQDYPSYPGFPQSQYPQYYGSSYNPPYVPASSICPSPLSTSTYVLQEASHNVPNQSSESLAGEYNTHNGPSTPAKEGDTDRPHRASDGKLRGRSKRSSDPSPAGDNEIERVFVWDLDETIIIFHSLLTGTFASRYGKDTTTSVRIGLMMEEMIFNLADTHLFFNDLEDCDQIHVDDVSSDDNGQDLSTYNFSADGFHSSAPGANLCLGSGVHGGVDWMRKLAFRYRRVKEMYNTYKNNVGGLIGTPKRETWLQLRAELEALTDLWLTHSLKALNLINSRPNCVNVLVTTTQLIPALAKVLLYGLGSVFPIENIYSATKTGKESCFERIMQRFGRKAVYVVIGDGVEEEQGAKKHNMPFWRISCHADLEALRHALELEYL
Target sequence (Q15475 whole entry, looked up): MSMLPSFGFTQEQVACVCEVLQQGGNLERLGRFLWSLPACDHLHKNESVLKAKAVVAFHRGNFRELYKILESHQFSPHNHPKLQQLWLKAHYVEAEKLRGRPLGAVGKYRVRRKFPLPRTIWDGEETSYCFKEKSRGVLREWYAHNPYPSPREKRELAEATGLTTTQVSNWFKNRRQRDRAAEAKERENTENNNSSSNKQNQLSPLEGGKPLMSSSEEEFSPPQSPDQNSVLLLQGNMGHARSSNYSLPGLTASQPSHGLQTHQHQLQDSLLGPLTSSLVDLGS
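GST-Six1 + His-Eya2 (5X stock: 250/500 nM); Tris pH 8.0, 300 mM NaCl, 0.05% BSA, 0.02% Tween 20; GSH donor/Ni acceptor beads; 1 h 37 °C dark; AlphaScreen readout.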
TRPML1 agonist: activates the human TRPML1 channel; Q9GZU1; TRPML1-expressing cells, Ca2+ dye fluorescence, FDSS; host cell line not named in the record; reference of the full effect not given here; activation, % (no concentration beside the values); actives 0.12% (n = 410,000); in the data active = activation above about 50%; inconclusive = about 30% to 50%; inactive = below about 30%; note: 0% is about no effect; the text of the record puts the active cut at 80%
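Cells: TRPML1-DL, 1X Tet inducer, ~16 h at 37 degrees C/5% CO2. Dye: ABD Ca8 no-wash + quencher, 45-90 min RT. Read: 10 s baseline, compound add, 110 s agonist phase; 54-4 EC80 (4uM final), 110 s antagonist phase.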
TRPML1 blocker: human mucolipin-1 channel inhibition. Q9GZU1. activity change, negative = inhibition, % (no concentration beside the values). AID 624415. TRPML1-inducible cells, Ca2+ dye fluorescence, FDSS; stronger effect = lower value; inhibition of EC80 agonist-evoked calcium signal. actives 0.02% (n = 390,000); in the data active means activity change below about -50%; inconclusive means about -30% to -50%; inactive means above about -30%;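 note: stimulus is agonist 54-4 at its EC80 concentration; % is set by controls: 0 for no effect and ±100 for the full control effect; compound concentration not given in the record; the text of the record puts the active cut at -80%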
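TRPML1-DL cells, Tet-induced overnight (~16 h, 37 °C) at 1,500 cells/well, were loaded with Ca8 no-wash dye plus quencher for 45-90 min at room temperature. Compounds were pinned during FDSS kinetic reading; agonist 54-4 at EC80 (4 uM final) then added.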
D2 PAM: positive allosteric modulators of human D2 dopamine receptor | actives 0.23% (n = 360,000) | potentiation, % (no concentration beside the values) | P14416 | DiscoveRx D2 beta-arrestin cells, luminescence, 90 min; 100% = 57 uM dopamine signal; active = potentiation of 50% or more; inconclusive = 30% to 50%; inactive = 30% or less;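 note: compound concentration not given in the record; tested on top of an EC20 dose of dopamine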
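D2 cells co-treated with compound plus 50 nM dopamine (EC20) for 90 min at 37 deg C to detect potentiation. Beta-arrestin recruitment was read as enzyme-fragment luminescence after 1 h at ambient temperature. Full response was set by 57 uM dopamine.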
Numbers without * were called inactive; ? = inconclusive; / = not tested or not shown.

smiles,CtBP-E1A inh,TRPV1 PAM,Six1-Eya2 inh,TRPML1 agonist,TRPML1 blocker,D2 PAM
OC(CNCc1cccc(Cl)c1)c1ccccc1 (centres undefined),6,-17,7,0.0,-18,-16
Cc1cccc(NC(=O)CN2CCc3cc4c(cc3C2)OCCCO4)c1,-5,-21,-3,-0.6,9,-28
CC(C)CN(CCCNC(=O)CN1C(=O)COc2ccc(S(=O)(=O)N3CCC(C)CC3)cc21)CC(C)C,9,-5,4,-0.4,-12,1
CCO[C@@H]1OC(C(=O)N2CCN(Cc3ccc4c(c3)OCO4)CC2)=C[C@H](c2ccc3c(c2)OCO3)[C@H]1CCCO,-18,9,-6,0.4,-11,-19
CCn1cc(/C=C(\NC(=O)c2ccc(C)cc2)C(=O)NCCN2CCOCC2)c2ccccc21,0,3,2,1.2,22,-28
CCC(C)NC(=O)C1CCC(=O)N(c2cc(OC)c(OC)c(OC)c2)C1c1ccc(OC)cc1 (centres undefined),9,2,1,0.0,20,1
Cc1c(C=O)c2ccccc2n1CC(=O)NCc1ccccc1,/,-16,7,-0.3,5,-1
C/C(=N/NS(=O)(=O)c1ccccc1)c1ccc(Cl)cc1,19,4,5,1.5,-7,-6
CC1=NNC(=O)C1CC(=O)N/N=C(\C)c1cccs1 (centres undefined),0,3,4,-0.5,6,3
Cc1cc(C(=O)N2CCCC(N3CCN(Cc4ccc5c(c4)OCO5)CC3)C2)n[nH]1 (centres undefined),0,14,2,-0.3,-3,-34
O=Cc1ccc(N2CCCCC2)cc1,-16,12,18,-0.1,-3,-2
COc1cc(OC)cc(C(=O)Nc2nnc(-c3cccnc3)o2)c1,-17,21,?,-0.3,-3,-11
COc1ccc([C@@H]2[C@@H]3C(=O)N(C(C)(C)C)C(=O)[C@@H]3[C@]3(Cc4ccccc4)C(=O)N(c4ccc(C)cc4)C(=O)N23)cc1,-2,-32,-2,0.5,-13,-13
Cc1ccc(F)cc1C(=O)N1CCCCC1c1cc(C(=O)NC(C)C)no1 (centres undefined),7,/,4,-0.2,/,-2
Cc1nn(CC(=O)N(C)Cc2ccc(F)cc2)c(C)c1[N+](=O)[O-],-11,29,7,-0.1,2,-8

Entries of single compounds as entered above. Screens in order: CtBP-E1A inh | TRPV1 PAM | Six1-Eya2 inh | TRPML1 agonist | TRPML1 blocker | D2 PAM
CC1=NNC(=O)C1CC(=O)N/N=C(\C)c1cccs1 (centres undefined) reads 0 | 3 | 4 | -0.5 | 6 | 3
Cc1cc(C(=O)N2CCCC(N3CCN(Cc4ccc5c(c4)OCO5)CC3)C2)n[nH]1 (centres undefined) reads 0 | 14 | 2 | -0.3 | -3 | -34

Next section
smiles,CtBP-E1A inh,TRPV1 PAM,Six1-Eya2 inh,TRPML1 agonist,TRPML1 blocker,D2 PAM
O=C1NC(=O)C2(CCCCCCCCCCC2)N1,3,0,-2,-0.3,2,3
COc1ccc(S(=O)(=O)N2CCOC2CNC(=O)C(=O)NCCCN2CCOCC2)cc1 (centres undefined),5,2,-1,0.2,11,2
S=c1nc(-c2ccccc2Br)[nH][nH]1,1,-34,2,0.2,2,0
CC1CCC2(CC1)NC(=O)N(CC(=O)Nc1ccccc1-c1ccccc1)C2=O (centres undefined),2,-24,7,-0.1,-8,-3
CCOC(=O)CCCCCC(=O)Nc1ccc2c(c1)C(=O)N([C@H](C)CO)C[C@H](C)[C@@H](CN(C)C(=O)Nc1ccccc1)OCCCC[C@@H](C)O2,-23,/,9,-0.2,10,-4
Cc1ccc(F)cc1-c1nc(NCC2CC2)nc2ccsc12,54,/,46,0.2,26,-12
COc1ccc(-n2c(SCC(=O)N/N=C/c3ccccc3OCC(=O)O)nc3ccccc3c2=O)cc1,5,-9,4,1.8,-4,0
Cc1cc(S(=O)(=O)N2CCN(c3ccccc3C)CC2)ccc1F,17,?,15,-0.1,-22,-16
O=C(NN1C(=O)C2CC=C(Cl)CC2C1=O)c1ccncc1 (centres undefined),-2,5,?,1.5,1,5
CC(C)(C)OC(=O)NNC(=S)NCc1ccc(Cl)cc1,-4,-1,5,0.8,8,-4
Cc1nc(CNC(=O)c2cc(COc3c(F)cccc3F)on2)cs1,4,-25,1,1.1,18,-1
CC1CCCCC1NC(=O)c1ccc(CNc2c(N3CCCC3)c(=O)c2=O)cc1 (centres undefined),2,0,-5,-1.0,5,-8
CC1Oc2ccccc2C=C1/C=N\NC(=O)c1cccnc1 (centres undefined),4,2,-9,0.3,-2,-13
CCOCC(=O)Nc1ccc([N+](=O)[O-])cc1Cl,-10,18,-11,-0.1,4,-1
COCCN1C(=O)c2ccccc2C1c1nnnn1-c1ccc2c(c1)OCCO2 (centres undefined),7,/,7,0.0,/,/

Sorted by SMILES length (ascending): some entries from above.
smiles,CtBP-E1A inh,TRPV1 PAM,Six1-Eya2 inh,TRPML1 agonist,TRPML1 blocker,D2 PAM
O=C1NC(=O)C2(CCCCCCCCCCC2)N1,3,0,-2,-0.3,2,3
Cc1ccc(F)cc1-c1nc(NCC2CC2)nc2ccsc12,54,/,46,0.2,26,-12
Cc1nc(CNC(=O)c2cc(COc3c(F)cccc3F)on2)cs1,4,-25,1,1.1,18,-1
COCCN1C(=O)c2ccccc2C1c1nnnn1-c1ccc2c(c1)OCCO2 (centres undefined),7,/,7,0.0,/,/
CC1CCCCC1NC(=O)c1ccc(CNc2c(N3CCCC3)c(=O)c2=O)cc1 (centres undefined),2,0,-5,-1.0,5,-8
CC1CCC2(CC1)NC(=O)N(CC(=O)Nc1ccccc1-c1ccccc1)C2=O (centres undefined),2,-24,7,-0.1,-8,-3
COc1ccc(-n2c(SCC(=O)N/N=C/c3ccccc3OCC(=O)O)nc3ccccc3c2=O)cc1,5,-9,4,1.8,-4,0

(further entries)
smiles,CtBP-E1A inh,TRPV1 PAM,Six1-Eya2 inh,TRPML1 agonist,TRPML1 blocker,D2 PAM
C[C@H]1COC(=O)CCC/C=C\C[C@H](CC(=O)N(CCO)Cc2ccccc2)C(=O)N1,6,/,-2,-0.8,-6,/
CC(=O)/C(=C/c1ccccc1)C(=O)Nc1ccccc1C,/,16,1,0.2,2,-12
O=C(Cn1cnc2c(cnn2-c2ccc(F)cc2)c1=O)N1CCCc2ccccc21,5,?,-1,-0.6,8,-5
COc1ccc(C(=O)Nc2ccc(NC(=O)c3cc(OC)c(OC)c(OC)c3)cn2)cc1,3,5,-2,-0.5,-8,-6
CC12CCC(C(=O)NCCCn3ccnc3)(OC1=O)C2(C)C (centres undefined),23,-1,3,-0.6,-9,8
O=C(CCCc1nc2ccccc2s1)Nc1nccs1,-1,-9,3,0.3,1,-2
CCC(=O)c1ccc(OCc2ccc(C(=O)c3ccccc3)cc2)cc1,36,11,35,1.1,32,-5
COc1ccc(-n2c(SCC(=O)Nc3ccc(C(N)=O)cc3)nc3c([nH]c4ccccc43)c2=O)cc1OC,-7,6,?,0.3,-11,-3
CCOC(=O)COc1ccc(S(=O)(=O)Nc2ccc3c(c2)OCO3)cc1,-21,-3,-12,1.4,15,0
Fc1ccc(NCc2nnc(SCc3nnc(-c4ccccc4)o3)n2CC2CCCO2)cc1 (centres undefined),0,-20,-4,3.5,-16,-11
Cc1ccc(CNC(=O)c2ccc(Br)o2)cc1,5,-33,0,0.2,42,-7
Cc1cc(C)n2nc(/C(C#N)=C/c3ccccn3)c(C#N)c2n1,-11,?,-8,-0.4,2,-8
COc1cccc(CN2CCNC(=O)C2CC(=O)N(C)CC2CCOCC2)c1 (centres undefined),8,-1,-7,0.8,-6,-5
O=C(CN(C(=O)CNC(=O)c1cccs1)c1ccc(F)cc1)NC1CCCC1,3,-1,-5,-0.5,8,-7
Cc1ccc(C(=O)Nc2cccc([N+](=O)[O-])c2)cc1S(=O)(=O)Nc1ccc(NC(=O)c2ccccc2)cc1,-17,-3,-24,0.7,-14,-22
OC[C@@H]1CN(Cc2ccc(Cl)cc2)C[C@H](n2cnc3c(NC4CCC4)ncnc32)O1,-2,/,-1,8.8,/,-1
CCCCc1nc2ccccc2c(=O)n1NC(=O)c1c(O)c2ccccc2n(C)c1=O,-3,1,3,0.6,18,-3
CNS(=O)(=O)c1ccc(CCC(=O)N2CCOCC2)cc1,12,/,1,1.2,18,0
CC(C)(C)NCC(O)COCc1ccc(Cl)cc1 (centres undefined),-1,-5,0,-0.7,-16,12
O=C(CSc1nnc(Cn2nnc(-c3ccccc3)n2)n1-c1ccccc1)Nc1ccc(F)cc1,-2,?,2,0.0,6,-1
O=S1(=O)CCN(CCCc2ccccc2)CC1,0,/,23,-0.8,5,1
COc1ccc(-c2ncn(CCC#N)c2[N+](=O)[O-])cc1,7,9,9,0.2,12,-2
Cc1ccc(CNCCCSc2nc(C)cc(C)n2)cc1,2,1,1,0.3,-10,-3
CCN(CC)S(=O)(=O)c1ccc(C(O)=C(C#N)c2nc3ccccc3n2C)cc1,0,/,-11,-0.6,26,-5
Cc1ccc(S(=O)(=O)N2CCN(C)CC2)cc1C(=O)NC1CCCCC1,-12,-1,5,0.1,6,-6
CCCCCCOC(=O)/C=C/c1c(C)[nH]c(=O)[nH]c1=O,0,-5,-4,-0.6,-5,-9
C=CCn1c(C)cc(-c2csc(NC)n2)c1C,-9,-3,0,0.3,19,-4
CC(C)CNC(=O)c1cccc(NC(=O)C(C)C)c1,2,20,4,-0.4,-3,-3
COc1ccc(CNC(=O)CNS(=O)(=O)c2ccc(Cl)cc2)cc1,-20,-3,-6,-0.6,-8,-5
CCOc1ccc(NC(=O)C2CC(=O)N(CC)C(=Nc3ccc4c(c3)OCO4)S2)cc1 (centres undefined),7,?,0,2.1,12,5
CC(C)(C)c1n[nH]c(=S)n(/N=C/c2cccs2)c1=O,-3,-2,-16,-0.8,-2,0

Screens deposited in PubChem by National Center for Advancing Translational Sciences (NCATS).
